Screening results: PubChem BioAssay, National Center for Advancing Translational Sciences (NCATS)
SARS PLpro yeast: inhibitors of SARS-CoV papain-like protease in yeast. S. cerevisiae expressing SARS-CoV PLpro, growth rescue; control for the full effect not named in the record. Potency, µM (top dose mostly 32.9 µM), for inactives: at the highest dose activity, positive = growth rescue. 330,000 compounds, 0.19% hits. AID 485353; active means well fitted rising curve with a large enough effect; inconclusive means small, poorly fitted or top-dose-only effect; inactive means no such curve, though single readings can be large or run the other way; further: 0% is about no effect; nearly all actives have a fitted effect of over 55% in size; growth read by luminescence after 48 h
Cruzain inh noDet: cruzain (T. cruzi) inhibition without detergent. 200,000 compounds, 2.3% hits. Potency, µM, inactives show max response, negative = inhibition, most hits filed as inhibitors. purified cruzain, Z-FR-AMC fluorescence, no detergent. P25779;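 further: plate controls were enzyme without inhibitor for no effect and buffer without enzyme for full effect; nearly all actives have a fitted effect of over 40% in size; top concentration of the series not given in the record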
Target sequence (P25779 123-467 limits assumed): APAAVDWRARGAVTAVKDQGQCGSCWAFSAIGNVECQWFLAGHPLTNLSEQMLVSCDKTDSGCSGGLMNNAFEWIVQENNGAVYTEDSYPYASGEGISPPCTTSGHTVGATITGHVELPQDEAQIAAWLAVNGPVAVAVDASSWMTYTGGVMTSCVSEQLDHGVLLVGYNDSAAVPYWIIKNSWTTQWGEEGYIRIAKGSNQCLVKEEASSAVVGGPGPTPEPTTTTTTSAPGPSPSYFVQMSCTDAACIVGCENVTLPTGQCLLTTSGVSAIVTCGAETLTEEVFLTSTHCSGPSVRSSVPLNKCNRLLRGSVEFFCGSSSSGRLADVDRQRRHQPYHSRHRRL
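Purified cruzain at 1.5 nM, pre-incubated 15 min with compound at room temperature in 100 mM sodium acetate pH 5.5, 5 mM DTT, 0.00005% Triton X-100. Reaction started with 2 uM Z-FR-AMC; AMC fluorescence increase over 60 s gives rate.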
Marburg entry inh: Marburg virus entry inhibition. Potency, µM (series often up to 37.8 µM), for inactives: at the highest dose activity change, negative = inhibition, most hits filed as inhibitors. Marburg virus pseudotyped entry inhibition, cell reporter; control for the full effect not named in the record; about a third of the inactives were read at about 46 µM. 300,000 compounds, 1.8% hits. AID 540276; active = well fitted inhibition curve with a large enough effect; inconclusive = small, poorly fitted or top-dose-only effect, or effect the other way; inactive = flat fitted curve, though single readings scatter; tested in HEK293 cells; about a fifth of its hits are not listed in these tables; further: on the % scale 0 is the no-effect control and ±100 the full control effect; luciferase read-out
RE007 growth inh: less growth of the S. pombe RE007 Vpr strain; 360,000 compounds, 0.21% hits; Potency, µM (highest dose often 92.2 µM), for the others: top-dose activity change, negative = less growth; AID 651644; S. pombe RE007 Vpr strain, BacTiter-Glo ATP luminescence, 24 h; control for the full effect not named in the record; active = well fitted falling curve with a large enough effect; inconclusive = small, poorly fitted or top-dose-only effect; inactive = no such curve, though single readings can be large or run the other way;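 further: on the % scale 0 is the no-effect control and ±100 the full control effect; nearly all actives have a fitted effect of over 50% in size; the assay follows cell death caused by Vpr and the record does not say whether a fall means rescue or toxicity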
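Fission yeast RE007 carrying one integrated HIV-1 vpr copy, seeded at OD 0.01 in PMG+AL medium with 23 nL pinned compound. Grown 24 h at 30 degrees; viability read by BacTiter-Glo luminescence after 5 min.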
Lassa entry inh: inhibitors of Lassa virus binding or cell entry | Lassa virus pseudotype entry inhibition, cell reporter; control for the full effect not named in the record | Potency, µM (doses to about 37.9 µM), for inactives: at the top dose activity change, negative = inhibition, most hits filed as inhibitors | 300,000 compounds, 1.2% hits | AID 540256; active means well fitted inhibition curve with a large enough effect; inconclusive means small, poorly fitted or top-dose-only effect, or effect the other way; inactive means flat fitted curve, though single readings scatter; tested in HEK293 cells; further: on the % scale 0 is the no-effect control and ±100 the full control effect; nearly all actives have a fitted effect of over 50% in size; luciferase read-out
NS1 inh: blocks influenza NS1 protein function. S. cerevisiae slowed by influenza A NS1, growth recovery by OD600. Potency, µM (titrated, usually from 46.1 µM), for inactives: at the highest dose activity, positive = more growth. 270,000 compounds, 0.4% hits; active means well fitted rising curve with a large enough effect; inconclusive means small, poorly fitted or top-dose-only effect; inactive means no such curve, though single readings can be large or run the other way; further: nearly all actives have a fitted effect of over 50% in size
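OD600 was taken as the measure of yeast growth restored by compound in an NS1-expressing S. cerevisiae strain. Cells had been washed out of glucose medium and diluted 1:100 into galactose -URA medium, pH 6.0.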
Cruzain Triton: blocks cruzain activity in presence of Triton detergent. AID 1478. P25779. Potency, µM, for inactives: max response, negative = inhibition, most hits filed as inhibitors. 200,000 compounds, 0.43% hits. purified cruzain, Z-FR-AMC fluorescence, 0.01% Triton;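 further: plate controls were neutral wells for no effect and buffer without enzyme for full effect; nearly all actives have a fitted effect of over 40% in size; top concentration of the series not given in the record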
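Purified cruzain (1.5 nM final) was preincubated with compounds for 15 min at room temperature in 100 mM sodium acetate pH 5.5, 5 mM DTT, 0.01% Triton X-100. Reaction started with 2 uM Z-FR-AMC; AMC fluorescence change over 60 s gave activity.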
StopGo reporter: FMDV 2A StopGo reporter, luciferase signal; human cells with a luciferase reporter of 2A StopGo recoding; control for the full effect not named in the record; Potency, µM (doses to about 57.9 µM), for inactives: at the top dose signal change, negative = less light; 410,000 compounds, 1.2% hits; AID 1159524; active = well fitted falling curve with a large enough effect; inconclusive = small, poorly fitted or top-dose-only effect; inactive = no such curve, though single readings can be large or run the other way; tested in HEK293T cells; further: on the % scale 0 is the no-effect control and ±100 the full control effect; nearly all actives have a fitted effect of over 45% in size; luciferase light after 4 h
Starred values were filed as active, the others as inactive; u = inconclusive; x = not tested or not shown; & = joins results of further samples; [ ] = another dose, or the depositor's remark. Unless noted, the call rests on the fitted dose curve; in most records, active means well fitted curve in the direction sought with a large enough effect; inconclusive means small, poorly fitted or top-dose-only effect, or another doubt; inactive means no such curve, though single readings can be large; an effect the other way counts as inactive or inconclusive. Potency means the concentration at half of the fitted maximal effect.

SMILES	SARS PLpro yeast	Cruzain inh noDet	Marburg entry inh	RE007 growth inh	Lassa entry inh	NS1 inh	Cruzain Triton	StopGo reporter
Cc1cccc(C)c1NC(=O)Cn1c(=O)n(CCC(=O)NCc2ccc3c(c2)OCO3)c(=O)c2sccc21	x	-15%	-20%[46.1 µM]	x	-19%[46.1 µM]	x	-3.3%	11%
O=C(c1ccc(Cl)cc1)C1CCN(C(=O)c2ccccc2)CC1	-4%	x	x	-28%	x	-17%	x	-18%
O=C(CSc1nc2[nH]ncc2c(=O)n1-c1ccccc1)c1ccc2c(c1)OCCO2	0%	u	u	7%	u	-19%	5.5%	u
Cc1cccc(OCc2nnc(SCC(=O)OC3CCCCC3)o2)c1	7%	6%	12%[46.1 µM]	17%	-2%	-71%	-7.5%	10%
CCCCN(C)C(=O)C1CCCN(S(=O)(=O)c2ccc3c(c2)CC(C)N3C(=O)C2CC2)C1 (stereo not given)	-3%	x	-26%[46.1 µM]	13%	u	-16%	x	10%
CC(C)(O)C#Cc1ccc(CN2CCN(Cc3ccccc3)C(CCO)C2)s1 (stereo not given)	0%	x	-9%[46.1 µM]	0%	-18%[46.1 µM]	9%	x	-8%
CC(C)(C)C(=O)NC(NC(=O)C(C)(C)C)c1ccc([N+](=O)[O-])cc1	11%	7%	40%	-3%	4%	11%	2.0%	-23%
O=C(N/N=C/c1ccc(-c2cccc([N+](=O)[O-])c2)o1)c1ccc([N+](=O)[O-])cc1	-5%	x	u	-17%	1%	x	x	u
CCOc1cccc(NC(=O)c2sc3nc(-c4ccc(F)cc4)ccc3c2N)c1	x	-27%	u	x	16%[46.1 µM]	x	-12%	-4%
CCn1c(Nc2ccccc2Cl)nc2ccccc21	-1%	x	-13%[46.1 µM]	-8%	2%	x	x	-2%
CCOc1ccc(N(CC(=O)NCCc2ccccc2)C(=O)CCC(=O)Nc2nccs2)cc1	-3%	x	u	13%	u	-6%	x	-2%
CCCCN(CC)CCCn1cnc2c([nH]c3ccc(Cl)cc32)c1=O	x	4%	u	x	28%[46.1 µM]	x	-1.4%	-8%
Cc1ccc(NC(=O)Nc2c(C)n(C)n(-c3ccccc3)c2=O)cc1	-1%	x	-1%[46.1 µM]	28%	-1%[46.1 µM]	3%	x	1%
C=C1CCN([C@@H](C)C(=O)NCCCCCC)S(=O)(=O)c2ccccc21	1%	x	x	-6%	x	4%	x	-14%
O=C(O)c1cc(-c2ccccc2Cl)n(-c2ccccc2)n1	0%	x	-2%[46.1 µM]	-14%	5%[46.1 µM]	1%	x	-8%
O=C(COC(=O)c1ccc(Br)o1)NCC1CCCO1 (stereo not given)	6%	-10%	3%	11%	21%[14.3 µM]	3%	6.7%	3%
Nc1ncn(C(=S)Nc2ccccc2)n1	x	x	u	-16%	11%	x	x	-14%
CCN(CC)S(=O)(=O)c1cccc(C(=O)OCC(=O)c2ccc3c(c2)OCCO3)c1	6%	-1%	u	x	u	10%	-3.0%	u
Cc1cc(/C=N/n2cnnc2)c(C)n1-c1ccc(Cl)cc1Cl	-9%	-4%	-26%	4%	-18%	-15%	-4.4%	-24%
Cc1ccc(-c2csc(NC(=O)c3ccccc3F)c2C(=O)O)cc1	0%	x	x	-3%	x	-46%	x	7%
CC1CCCCN1S(=O)(=O)c1ccc2c(c1)oc(=O)n2CC(=O)Nc1ccc(Cl)cc1 (stereo not given)	x	-3%	x	x	-4%[46.1 µM]	x	0.5%	-16%
OC(c1ccccc1)(c1ccccc1)c1nccn1-c1ccccc1	x	x	u	-11%	-10%[46.1 µM]	x	x	-7%
O=C(COc1ccc(S(=O)(=O)NC2CCCCC2)cc1Cl)NCC1CCCO1 (stereo not given)	2%	11%	u	0%	0%	-15%	8.1%	85%[activator]
CCOC(=O)c1cc([N+](=O)[O-])c([N+](=O)[O-])cc1NC(C)=O	-135%	19%	u	0%	-13%	-47%	-6.3%	u
CCCOc1cccc(C(=O)N(Cc2sccc2C)C2CCS(=O)(=O)C2)c1 (stereo not given)	x	5%	u	x	-15%[46.1 µM]	x	-5.7%	-3%
CC(C)C(=O)Nc1cccc(-c2csc(-c3ccccc3)n2)c1	-11%	-3%	u	-18%	-23%	-9%	-5.1%	5%
CC1CCN(C(=O)CCNS(=O)(=O)c2ccc(Cl)cc2)CC1	1%	x	-3%[46.1 µM]	1%	9%	-15%	x	3%
CCOC(=O)c1sc2ncn(CC(=O)NCC3CCCO3)c(=O)c2c1C (stereo not given)	2%	12%	u	11%	-4%	-2%	1.6%	-7%
Cc1nc(-c2cccc(NS(=O)(=O)c3ccc4ccccc4c3)c2)cs1	-19%	25µM*	2%	18%[3.69 µM]	5%	-4%	-1.4%	14%
COc1ccc(CN=CC2=C(O)CNC2=O)cc1	u	-2%	-4%	0%	12%	4%	8.3%	0%
Nc1nc(SCC(=O)NC2CCCC2)[nH]c(=O)c1NC(=O)c1cccs1	4%	x	x	7%	x	-65%	x	0%
O=c1ccnc(S/C=C/c2ccccc2)[nH]1	-26%	-4%	12%	-1%	12%	-34%	4.4%	65%[activator]
COc1ccc(/C(O)=C2/C(=O)C(=O)N(c3nc(C)c(C)s3)C2c2ccco2)cc1 (stereo not given)	-3%	-29%	1%	-23%	3%	-119%	-7.2%	-10%
O=C1C2CC=CCC2C(=O)N1c1ccc(Cc2ccncc2)cc1 (stereo not given)	2%	1%	-23%	8%	u	8%	7.3%	x
O=C(CNC(=O)c1cccc(Br)c1)N/N=C/c1cn[nH]c1-c1ccccc1	6%	-13%	u	2%	u	6%	-2.7%	-21%
CCCCn1c(=O)c(C(=O)Nc2nc3ccccc3[nH]2)c(O)c2ccccc21	-5%	1%	x	x	x	-13%	2.3%	x
COc1ccc(N=Nc2cc(C)c(O)c(CN3CCCCC3)c2)cc1	1%	x	-26%[46.1 µM]	-12%	5%	-1%	x	23%
CCOC(=O)CNC(=O)c1cccnc1	2%	1%	24%	6%	-6%	9%	6.9%	-13%
O=C(CSCC(=O)N1CCCCC1)Nc1nc(-c2ccc(Cl)s2)cs1	-28%	-3%	x	-14%	x	-74%	-10%	0%
Cc1cc(OCC(=O)NN2C(=O)c3ccccc3C2=O)ccc1Cl	2%	x	x	-6%	x	7%	x	-20%
C/C(=N\O)C(=O)OC1CC(C)CCC1C(C)C (stereo not given)	-12%	7%	u	u	-5%	-8%	-4.2%	u
Cc1csc2nc(COC(=O)c3ccccc3NC(=O)COc3ccccc3F)cc(=O)n12	x	4%	x	x	0%[46.1 µM]	x	-0.4%	9%
Cc1ccc(OCc2cc(C(=O)NC3CCc4ccccc43)no2)cn1 (stereo not given)	-4%	x	x	-7%	x	-21%	x	-29%
CS(=O)(=O)Nc1cccc(C2=NN(C(=O)c3cccc([N+](=O)[O-])c3)C(c3cccs3)C2)c1 (stereo not given)	1%	x	x	-3%	x	10%	x	-10%
O=C(N/N=C/c1cccnc1)c1ccc2c(c1)OCCO2	-7%	-5%	-2%	-6%	u	u	-2.4%	24%
O=C(O)CCC(=O)Nc1ccc(OCC2CCCO2)cc1 (stereo not given)	-8%	x	x	-3%	x	22%	x	2%
CN1C(=O)CSc2ccc(NC(=O)N3CCC(N4CCCCC4)CC3)cc21	6%	-2%	-4%	3%	2%	-2%	1.7%	x
Cc1csc(NC(=O)c2ccccc2[N+](=O)[O-])n1	-2%	2%	9%	-13%	-3%	0%	-1.9%	-2%
Cc1cc(NC(=S)NC(=O)/C=C/c2ccc(S(=O)(=O)N3CCOCC3)cc2)ccc1Br	9%	x	u	5%	u	9%	x	u
CCC1=NN(C(=O)Cc2ccccc2)C(O)(c2ccncc2)C1 (stereo not given)	2%	x	-2%	12%	13%	4%	x	-14%
CC(Oc1cccc2cccnc12)C(=O)N/N=C/c1ccccc1 (stereo not given)	2%	x	-1%[46.1 µM]	3%	2%	x	x	-12%
O=C(CCNC(=O)c1ccc([N+](=O)[O-])cc1)Nc1cccc(S(=O)(=O)N2CCCCC2)c1	1%	x	x	-1%	x	-10%	x	u
Cc1nc(CCl)cc(=O)[nH]1	-2%	x	-10%[46.1 µM]	10%	18%[46.1 µM]	x	x	13%
CCCCNC(=O)CSc1nc2ccccc2nc1Cc1ccc(Cl)cc1	x	16%	x	x	17%[46.1 µM]	x	2.7%	-22%
O=C(O)CC(c1ccc(Cl)cc1)N1Cc2ccccc2C1=O (stereo not given)	0%	x	-17%[46.1 µM]	-1%	-2%[46.1 µM]	u	x	3%
O=C(O)CNS(=O)(=O)Cc1ccccc1	0%	x	x	6%	x	7%	x	-13%
CC(C)CC(c1nnnn1C1CCCC1)N1CCN(C(=O)c2ccco2)CC1 (stereo not given)	0%	10%	3%	-3%	-26%	-3%	-1.5%	-17%
COc1ccc(Oc2nc(C)nc3c2oc2ccccc23)cc1	8%	u	u	21%	u	-8%	-2.6%	u
CCN(CC)c1cc(C)c(C#N)c2nc3ccccc3n12	0%	x	0%	5%	2%	2%	x	-26%
CN(C)S(=O)(=O)N1CCc2ccc(NC(=O)c3ccc(C(F)(F)F)cc3)cc2C1	0%	x	x	9%	x	20%	x	u
Next records follow.
SMILES	SARS PLpro yeast	Cruzain inh noDet	Marburg entry inh	RE007 growth inh	Lassa entry inh	NS1 inh	Cruzain Triton	StopGo reporter
CCc1nc(SCC(=O)NCc2ccco2)c2c3c(sc2n1)CCCC3	7%	-28%	u	8%	-18%	-2%	2.6%	-15%
CCS(=O)(=O)CCn1c([N+](=O)[O-])cnc1C	-1%	-2%&-7%&0%	1%&1%&1%&1%&1%&1%&1%	4%[18.4 µM]	10%	-32%	-2.4%&3.0%&-5.4%	-21%&-8%
O=C(COc1ccc2ccc(=O)oc2c1)N1CCN(c2ccccc2)CC1	3%	x	u	-2%	5%	4%	x	-22%
Cc1noc(C)c1CSc1ccc(Br)cc1	6%	3%	-2%	1%	u	11%	5.4%	x
O=C1Nc2cc(Cl)ccc2Oc2cc(Oc3ccccc3)ccc21	x	u	x	x	u	x	-12%	-11%
COc1ccc(C(C)C)cc1S(=O)(=O)n1ccnc1C	4%	7%	2%	x	1%	-7%	-2.8%	69%[activator]
COc1cc(/C=C/C(=O)NCCN2CCOCC2)cc(OC)c1OC	7%	-1%	u	6%	0%	20%	-3.0%	-16%
